Screens from PubChem.
GIV-Gai inh: inhibitors of GIV peptide binding to Galpha-i3, primary screen, biochemical, fluorescence polarization, FITC-GIV GBA peptide, rat Galphai3; 210,000 compounds, 0.42% hits; Guanine nucleotide-binding protein G(i) subunit alpha-3 (Rattus norvegicus), P08753; percent of control (FP), % (test concentration not listed); 90 min; hits give low values; scaled: aluminum fluoride 0%, vehicle 100%;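 active = replicate mean at 85% of control or lower, very high polarization wells dropped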;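 note: wells of about 15 µL received 100 nL stock; the first replicate is given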
Target sequence (P08753 whole entry, looked up): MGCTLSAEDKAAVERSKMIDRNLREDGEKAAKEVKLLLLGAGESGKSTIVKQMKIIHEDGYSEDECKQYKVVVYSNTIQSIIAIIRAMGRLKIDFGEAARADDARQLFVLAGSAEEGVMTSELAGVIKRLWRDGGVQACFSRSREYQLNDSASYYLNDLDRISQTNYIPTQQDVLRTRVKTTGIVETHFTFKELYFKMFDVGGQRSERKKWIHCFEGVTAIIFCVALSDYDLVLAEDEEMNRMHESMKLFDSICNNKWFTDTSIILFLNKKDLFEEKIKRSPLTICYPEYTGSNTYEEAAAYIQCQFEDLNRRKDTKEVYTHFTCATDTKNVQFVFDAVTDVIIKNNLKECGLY
Sa growth 42C: S. aureus growth inhibition at 42 and 30 °C, primary screen, LtaS inhibitor project, RN4220, two temperatures. OD600, 20 h, 42 °C; hits give low values. relative growth, % (no concentration beside the values). 170,000 compounds, 0.53% hits. AID 720641, 2013;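 active = growth at 42 °C up to 50% and 20 or more points under that at 30 °C, or under 10% at both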;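 note: 300 nL library stock went into each well; scaled to the means of positive and negative controls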
HCMV NEC inh: inhibitors of HCMV UL50-UL53 interaction, biochemical, HTRF; HCMV UL50-UL53 nuclear egress complex (human cytomegalovirus); normalized percent inhibition; inhibition, % (test concentration not listed); 190,000 compounds, 0.15% hits;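 active = both replicates at 50% or more, plus weaker picks with an unusually low signal ratio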;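 note: stock transfer was 100 nL into about 20 µL; 0% = negative control wells and 100% = wells with untagged competitor protein; inactives centre near -12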
Sa growth 42C second temp: second read-out of Sa growth 42C, no call of its own (marks repeat the call); relative growth, %; measured here: growth at 30 °C;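 optical density after 20 h as mean of two plates; 100% = untreated growth and lower means inhibition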
Active calls of the source: *; / = no result given; & = joins results of further samples.

mol,GIV-Gai inh,Sa growth 42C,Sa growth 42C second temp,HCMV NEC inh
CC1CC(C)CN(CCC(=O)Nc2ccccc2)C1 (stereo not given),/,87,79,-10
Cc1ccc(-n2ncc(C(=O)Nc3ccccc3Cl)c2C2CCNCC2)cc1C,99,/,/,5
O=C(Nc1ccc2c(c1)OCO2)N1CCCC1c1ccc(Cl)cc1 (stereo not given),99,/,/,-20
CC(C)NC(=O)c1ccc(COCC(F)(F)C(F)F)o1,105,94,89,-20
O=C(NCCCN1CCCC1=O)c1cc2ccc3cccnc3c2[nH]1,98,/,/,6
CCOC(=O)/C=C1\SCC(=O)N1CC(=O)Nc1cc(C(F)(F)F)ccc1N1CCOCC1,/,94,83,-22
O=C(NCc1cccs1)c1ccc(Cn2c(SCc3ccccc3)nc3cccnc32)cc1,99,106,92,/
COC(=O)c1cc(C#N)c(SCC#N)nc1C(OC)OC,110,82,86,-67
Cc1nccn1-c1ccc(C(F)(F)F)cn1,104,102,96,-26
CC(C)=CCCC(C)N1CC23C=CC(O2)C(C(=O)O)C3C1=O (stereo not given),99,94,82,-16
FC(F)(F)c1cnc(SCc2ncc(-c3ccccc3)o2)c(Cl)c1,/,99,88,21
Fc1ccccc1C1N(Cc2ccccc2)CCCN1Cc1ccccc1,102,95,84,/
CCOc1ccc(Oc2cc(C)nc(SC)n2)nn1,103,100,81,/
ONC=NCc1ccccc1OC(F)(F)F,100,91,90,-12
Cc1nc(-c2c(C(F)(F)F)oc3cc(O)ccc3c2=O)cs1,102,102,82,/
COc1cc(Cl)c(C)cc1NC(=O)Cn1ncc2c(=O)oc3ccccc3c21,104,103,93,-1
CCOC(=O)N1CCN(C(=O)C(NS(=O)(=O)c2cccc3nsnc23)c2ccccc2)CC1 (stereo not given),102,107,91,-27
Cc1c(C(=O)NCc2cccc(Br)c2)oc2ccc3c(c12)C(=O)CC(C)(C)O3,103,111,87,-33
COc1cccc(CNC(=O)c2ccc(CS(=O)Cc3ccc(Cl)cc3)o2)c1 (stereo not given),107,120,91,/
CCCn1c(=O)c2ccccc2n2c(SCC(=O)/C(C#N)=C(\C)N)nnc12,/,98,82,12
Cc1cccc(Cn2c(C)c(CNCCc3c[nH]c4ccccc34)c(C(=O)O)c2C)c1,104,/,/,-32
Cc1ccccc1OCc1nc2ccccc2c(=O)n1N,98,107,95,-14
CCOC(=O)C1CCCCN1C(=O)CCc1c(C)nc2cc(-c3ccc(OC)cc3OC)nn2c1C (stereo not given),104,105,83,-4
CCC(=O)N1CCc2cc(OC)c(OC)cc2C1COc1ccccc1OC (stereo not given),99,111,90,/
Cc1ccc(C(=O)N2CCC(C(=O)NC3CCCC3)CC2)cc1,/,83,92,9
CCn1c(COC(=O)/C=C/c2ccc(Br)o2)nc2cc(S(=O)(=O)N(C)C)ccc21,/,107,78,-38
COC(=O)c1scc(-c2ccc(C)cc2)c1S(=O)(=O)N1CCN(c2ccc(F)cc2)CC1,105,87,86,/
CCCn1c(=O)c2ccccc2n2c(SCC(=O)NC(C)CC)nnc12 (stereo not given),102,/,/,18
CC(C)=Cc1nc2cccc(F)c2c(=O)o1,97,97,91,/
CCCCCN1C(C(=O)c2ccccc2)=C(NC(=O)c2ccc(OC)cc2)c2ccccc2S1(=O)=O,99,88,94,-10
CCOC(=O)C1=C(N)N(c2ccc(OC)cc2)C(=O)C1,/,65,87,-13
CCOC(=O)C1CCN(C(=O)c2c(-c3ccccc3)noc2C)CC1,102,94,91,-11
Cc1cc(C)cc(NC(=O)Nc2c[nH]c(=O)[nH]c2=O)c1,101&98,116,89,-42&-12
O=Nc1c(O)[nH]c2c(C(F)(F)F)cccc12,/,96,94,-54
Nc1cccc(-c2cc(C(=O)O)c3cc(Br)ccc3n2)c1,100,101,92,-60
COc1ccc(Nc2cc(C)c3cc(NC(=O)Cc4c(F)cccc4Cl)ccc3n2)cc1,103,91,88,/
CCOc1ccc(C2=NC(c3ccccc3)=Nc3ccc(Cl)cc3N2)cc1,97,/,/,-14
O=c1oc(-c2cccs2)nc2scc(-c3ccccc3)c12,100,99,81,-5
O=C(NCc1csc(-c2ccccc2)n1)c1ccco1,/,110,102,-5
OC1(c2ccc(Cl)cc2Cl)CSC(=S)N1Cc1ccco1 (stereo not given),98,83,79,-16
O=C(Cc1ccccc1)n1nc(-c2ccco2)nc1NCc1ccccc1,102,82,78,-11
COc1ccc(NC(=O)C(C)n2c(C)c3cnn(-c4ccccc4)c(=O)c3c2C)cc1Cl (stereo not given),107,111,88,-12
CC(C)CC(=O)N1CCC2(CC1)Nc1ccccc1-n1cccc12,102,/,/,-25
Cn1c(=NC(=O)CSCC(=O)Nc2nccs2)sc2ccccc21,101,106,87,-12
Cc1cc(NC(=O)CCC2CCCCC2)no1,103,84,45,/
CC(OC(=O)c1ccc(S(=O)(=O)N2CCCC2)cc1)C(=O)NC1CC1 (stereo not given),/,100,93,3
COC(=O)C1=C(c2ccccc2)c2ccccc2S(=O)(=O)N1CC(=O)Nc1ccc(OC)cc1OC,104&102,105,98,12&-36
Cc1ccc(CNS(=O)(=O)c2ccc(-c3cc(C(F)(F)F)on3)s2)cc1,103,103,86,/
COc1ccc(CCNC(=O)C2=NNC(=O)CC2)cc1,/,82,94,-9
CCOc1ccc(C(=O)Nc2ccc(-c3nnc4n3CCCCC4)cc2)cc1OCC,96,96,92,/
CCCCOC(=O)c1ccc(NC(=O)c2ccc3c(c2)CCN3S(C)(=O)=O)cc1,105,82,95,14
O=C(Nc1ccccc1)c1ccc2ncccc2c1,101,105,83,3
Cc1cc(=O)[nH]c2nnc(SCC(=O)Nc3cc(C(F)(F)F)ccc3Cl)n12,99,96,94,/
O=C(CSc1nc(=O)[nH]c2c1CCCC2)NCc1ccc(Cl)cc1,102,123,85,/
Cc1ccccc1C(=O)NC(C)c1ccc2c(c1)OCCO2 (stereo not given),100,90,95,-5
Cc1nnc(N2CCCC2)c2c1nnn2Cc1ccccc1Cl,104,98,84,-14
Cc1c(C(=O)O)oc2c1ccc1ccccc12,/,122,89,-9
N#Cc1cnc(Sc2nnc(-c3ccncc3)o2)nc1N,102,96,92,-15
CCn1c(SCC(=O)Nc2cccc3nsnc23)nc2ccccc21,/,105,98,-23
CCOc1ccc2nc3c(cc2c1)CN(CCO)C(=Nc1cccc(OC)c1)S3,104,125,90,-2

Entries of single compounds, quoted from the list. Screens in order: GIV-Gai inh	Sa growth 42C	Sa growth 42C second temp	HCMV NEC inh
Listed for `CCOc1ccc(C(=O)Nc2ccc(-c3nnc4n3CCCCC4)cc2)cc1OCC` : 96	96	92	/
Listed for `Cn1c(=NC(=O)CSCC(=O)Nc2nccs2)sc2ccccc21` : 101	106	87	-12

Other compounds follow:
mol,GIV-Gai inh,Sa growth 42C,Sa growth 42C second temp,HCMV NEC inh
CCCNC(=O)CSc1nc2ccccc2nc1Cc1ccc(Cl)cc1,102,85,92,/
Cc1c(C)n(CC(O)CNC2CCCCC2)c2ccccc12 (stereo not given),105,88,108,/
Cn1ncc(C#N)c1/N=C/N(Cc1ccccc1)Cc1ccccc1,101,89,76,-11
Nc1c(-c2ccncc2)[nH]c2ccc(F)cc12,94,/,/,-76
CC1CCc2ccccc2N1C(=N)N(C)C (stereo not given),97,98,87,/
Cc1cc(-c2ccc(C)c(S(=O)(=O)NCC3CCN(Cc4ccccc4F)CC3)c2)on1,99,108,84,/
CC(C)NC(=O)CN1C(=O)C(C)(C)Oc2ccc(C(=O)NC(C)C)cc21,99,76,90,7
COC(=O)c1sccc1S(=O)(=O)N(CC(=O)Nc1ccc(C)c(F)c1)c1ccc(C)c(C)c1,98,97,93,/
O=C(Cn1c(=O)oc2ccccc21)N1CCN(S(=O)(=O)/C=C/c2ccccc2)CC1,/,90,87,-2
COc1ccc(N2CCN(Cc3cc(=O)c(OCc4ccccc4)co3)CC2)cc1,104,96,92,-27
COc1ccc(CNC(=O)c2cc3c(s2)-c2c(C)nn(-c4ccccc4)c2CC3)c(OC)c1,105,/,/,-6
O=C1CSCC(=O)N1c1ncc(C(F)(F)F)cc1Cl,104,88,95,1
O=C(Nc1ccc(Oc2cccnc2)nc1)c1ccc(Cl)cc1,97,91,78,-16
COc1ccc(C)cc1NC(=O)c1oc2ccc(S(=O)(=O)N(C)C3CCCCC3)cc2c1C,105,114,89,/
Cc1ccc2nc(NC3=NC(c4ccccc4)CC(=O)N3)nc(C)c2c1 (stereo not given),103,/,/,-11

Some of these compounds in order of molar mass, descending.
mol,GIV-Gai inh,Sa growth 42C,Sa growth 42C second temp,HCMV NEC inh
CCOC(=O)N1CCN(C(=O)C(NS(=O)(=O)c2cccc3nsnc23)c2ccccc2)CC1 (stereo not given),102,107,91,-27
CCCn1c(=O)c2ccccc2n2c(SCC(=O)NC(C)CC)nnc12 (stereo not given),102,/,/,18
Cc1ccc(C(=O)N2CCC(C(=O)NC3CCCC3)CC2)cc1,/,83,92,9
Cc1c(C(=O)O)oc2c1ccc1ccccc12,/,122,89,-9

Other entries
mol,GIV-Gai inh,Sa growth 42C,Sa growth 42C second temp,HCMV NEC inh
C=CCSC1=C(C#N)C(c2ccccc2Cl)CC(=O)N1 (stereo not given),/,93,73,-17
Clc1cccc(Cl)c1CSc1nnc(N2CCOCC2)n1-c1ccccc1,/,109,98,-11
CCOc1ccccc1NC(=O)Cn1nc2c3cc(F)ccc3n(Cc3cccc(C)c3)cc-2c1=O,103,98,93,/
Cn1c(=O)c2c(nc(Sc3n[nH]c(N)n3)n2Cc2ccccc2Cl)n(C)c1=O,100,98,85,-3
Cc1ccc(C)c(S(=O)(=O)c2nnn3c2nc(N2CCN(C)CC2)c2sccc23)c1,109,105,94,/
CCOC(=O)c1c(C)oc2nc(C)nc(NCC3CCN(Cc4cccc(C)c4)CC3)c12,109,85,91,/
CCC(C)(C)Nc1ncccc1C(=O)O,109,86,105,17
C=CCNC(=O)C#Cc1ccccc1,/,118,87,-3
CC(C)CC(=O)Nc1ccncc1,99,100,106,3
Cc1ccc(-c2nc3nc(C)cc(N4CCN(c5ccccn5)CC4)n3n2)cc1,104,/,/,7
Cc1occc1C(=O)N1CCCCCC1,111,82,100,4
CC(C)[C@H](NC(=O)c1cccc(S(=O)(=O)N2CCOCC2)c1)C(=O)O,/,90,91,-14
Cc1ccc(Nc2nc(N)nc(CSc3nnnn3-c3ccccc3)n2)cc1,103,100,77,-2
N#CC1=C(S)N=C(N)C(c2nc(-c3ccccc3)cs2)C12CCCCC2 (stereo not given),/,72,68,-23
CCn1c(=NC(=O)c2cccc(OC)c2)sc2cccc(OC)c21,106,94,83,-22
NC(=O)c1cc[n+](CC2=C(C(=O)O)N3C(=O)[C@@H](NC(=O)[C@@H](c4ccccc4)S(=O)(=O)[O-])[C@H]3SC2)cc1,92,/,/,-24&-69
COc1ccc(OC)c(NC(=O)Cn2cnc3onc(-c4ccc(Cl)cc4)c3c2=O)c1,108,/,/,8
Cc1cc2cc(CNC(=O)c3cc4ccccc4o3)ccc2n1C,99,93,85,-31
O=C(O)c1nccnc1C(=O)Nc1ccccc1,103,120,95,0
Cc1ccc(NC(=O)CSc2nn3c(=O)c(Cc4ccccc4)nnc3s2)cc1,105,/,/,18
Cc1ccccc1Cn1c(CN2CCC(C(=O)NCc3ccc(Cl)cc3)CC2)cc2ccccc21,106,139,97,/
O=c1c2[nH]c3ccc(F)cc3c2ncn1Cc1ccccc1,102,/,/,-8
O=C(Nc1ccc(Cl)cc1)c1ccc(CSC2=NCCS2)cc1,/,73,97,15
Fc1ccc(-c2cn3cccnc3n2)cc1,112,97,90,-1
CCOC(=O)c1ccc(NC(=O)CCCn2nc(C)c3sc4ccccc4c3c2=O)cc1,118,84,72,-14
